RN4220 kill = kills Staphylococcus aureus RN4220. actives 0.33% (n = 330,000). S. aureus RN4220 growth, OD600, 16 h. inhibition, % (test concentration not listed);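 active = z-score of -3 or lower and OD600 up to 0.18 on both plates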;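 note: plate controls were untreated cells for no effect and reference antibiotic for full effect; stock transfer was 100 nL into about 80 µL; one replicate is shown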
Mtb hypoxia rep = inhibitors of hypoxia-regulated fluorescent reporter in Mycobacterium tuberculosis. M. tuberculosis hypoxia-regulated fluorescent reporter, fluorescence. fluorescence inhibition, % (test concentration not listed). actives 0.1% (n = 300,000);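 active = 35 to 45% if threefold the growth effect, above 45% if 1.5-fold the growth effect; inactive = the rest, general growth blockers included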;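 note: wells of about 50 µL received 100 nL stock; 0% = vehicle wells and 100% = reference inhibitor wells; whole bacteria with a GFP reporter of the hypoxia response; strong numbers were not always called active; many hits fall short of the cut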
BJeLR lethal = BJeLR cell viability loss. BJeLR (HRASV12) viability, CellTiter-Glo ATP luminescence, 48 h; reference of the scale not given here. inhibition, % (concentration not given with the values). actives 0.17% (n = 300,000);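 active = replicate mean above 50%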;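 note: 50 nL library stock added to about 25 µL; numbers are from one replicate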
Autofluor counter = compound fluorescence in toxin protease inhibitor counterscreen; compound autofluorescence counterscreen, microsphere flow cytometry; stronger effect = higher value; fluorescence intensity (concentration not given with the values); actives 3.1% (n = 360,000); AID 624483;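 active = at least 3 SD above the mean of all compounds, about 16000 in these data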;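 note: 100 nL of 1 mM stock went into each well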
PrP 5UTR inh = suppresses PrP 5' UTR mRNA reporter expression; cell-based PrP 5' UTR mRNA reporter, plate reader; actives 0.35% (n = 340,000); inhibition, % (concentration not given with the values); AID 488862;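 active = every replicate at 50% or more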;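 note: 0 = median of the neutral control wells; tested in H4 reporter cells; numbers are from one replicate; inactives centre near -14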
ugtP null kill = kills S. aureus RN4220 lacking UgtP; S. aureus RN4220 ugtP deletion, OD600 growth, 16 h; some inactives read as strong as hits; growth inhibition, % (no concentration beside the values); actives 0.54% (n = 330,000); AID 1259309;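 active = z-score under -3 and OD600 up to 0.15 on both plates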;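 note: plate controls were untreated wells for no effect and antibiotic for full effect; wells of about 80 µL received 100 nL stock; the first replicate is given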
Mtb hypoxia rep growth = recorded beside Mtb hypoxia rep, whose call it bears; growth inhibition, %; measured here: M. tuberculosis growth (absorbance);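 0% = vehicle and 100% = reference antibiotic; read after six days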
Numbers without * were called inactive.

COc1cccc(N2CC(C(=O)Nc3nnc(SCC(=O)Nc4ccc(NC(C)=O)cc4)s3)CC2=O)c1 (stereo unspecified) was read as RN4220 kill 3.2, Mtb hypoxia rep 1, BJeLR lethal 6, Autofluor counter 5114, PrP 5UTR inh -20, ugtP null kill 10 and Mtb hypoxia rep growth 9.
Screening N#Cc1ccc(-c2ccc3c(c2)OCO3)nc1SCC(=O)OCc1ccccc1 returned RN4220 kill 6.4, Mtb hypoxia rep 8, BJeLR lethal -6, Autofluor counter 4217, PrP 5UTR inh 3, ugtP null kill -3 and Mtb hypoxia rep growth 2.
CC1(C)Cc2c(sc(NC(=O)COc3ccc(Cl)cc3)c2C#N)C(C)(C)N1 was read as RN4220 kill -5.1, Mtb hypoxia rep 10, BJeLR lethal 0, Autofluor counter 3364, PrP 5UTR inh -31, ugtP null kill 3 and Mtb hypoxia rep growth 9.
For CC(=O)NCCN=C(C)c1sc2ccccc2c1O the results were RN4220 kill 4.2, BJeLR lethal 5, Autofluor counter 2792, PrP 5UTR inh -48 and ugtP null kill 2.
For CCN(CC)C1CCN(Cc2cn[nH]c2-c2ccc(OC)c(F)c2)C1 (stereo unspecified) the results were RN4220 kill 1.0, Mtb hypoxia rep -1, BJeLR lethal 1, Autofluor counter 4896, PrP 5UTR inh -28, ugtP null kill 2 and Mtb hypoxia rep growth 6.
Screening COC(=O)C1=C(c2cccc(OC)c2OC)C[C@@H]2CC[C@H]1N2C(=O)NC(C)C returned BJeLR lethal 2, Autofluor counter 4023 and PrP 5UTR inh -14.
`COc1ccc(-c2c(C)n([O-])c(C)c(C)[n+]2=O)cc1OC` gave RN4220 kill 0.3, BJeLR lethal 4, Autofluor counter 3706, PrP 5UTR inh -21 and ugtP null kill 7.
For CC1=NN(c2ccccc2)C(=O)C1/C=C1/NC(=S)NC1=O (stereo unspecified) the results were RN4220 kill 4.3, Mtb hypoxia rep 6, BJeLR lethal -2, Autofluor counter 4318, ugtP null kill 11 and Mtb hypoxia rep growth 3.
Screening CCOC(=O)CC1c2cc(F)ccc2S(=O)(=O)N1c1ccccc1 (stereo unspecified) returned RN4220 kill 6.5, Mtb hypoxia rep 10, ugtP null kill 7 and Mtb hypoxia rep growth 14.
For CCOC(=O)C1CCN(Cc2ccc(C(=O)OC)cc2)CC1 the results were RN4220 kill 3.1, Mtb hypoxia rep -1, BJeLR lethal 1, Autofluor counter 23791*, PrP 5UTR inh -4, ugtP null kill 3 and Mtb hypoxia rep growth 1.
Screening O=c1oc2c(-c3cccc(F)c3)cc(O)cc2s1 returned RN4220 kill -5.5, Mtb hypoxia rep 3, BJeLR lethal 11, Autofluor counter 1967, PrP 5UTR inh 3, ugtP null kill -11 and Mtb hypoxia rep growth -8.
`CCOC(=O)C(NC(C)=O)(Nc1cccc(F)c1)C(F)(F)F` (stereo unspecified) gave RN4220 kill -1.5, BJeLR lethal -12, Autofluor counter 5869, PrP 5UTR inh -5 and ugtP null kill 7.
`Cc1ccn2cc(-c3cc4ccccc4oc3=O)nc2c1` gave RN4220 kill -2.9, Mtb hypoxia rep -2, Autofluor counter 3277, PrP 5UTR inh 4, ugtP null kill 3 and Mtb hypoxia rep growth 2.
`Cc1ccc(-n2c(O)c(C=Nc3ccc(S(N)(=O)=O)cc3)c(=O)[nH]c2=O)cc1` gave RN4220 kill 5.1, Mtb hypoxia rep 5, BJeLR lethal 6, Autofluor counter 4073, PrP 5UTR inh -24, ugtP null kill 0 and Mtb hypoxia rep growth -1.
Screening Cc1ccc(C)c(NC(=O)CC2Oc3ccccc3NC2=O)c1 (stereo unspecified) returned RN4220 kill 2.0, Mtb hypoxia rep -11, BJeLR lethal 6, Autofluor counter 3660, PrP 5UTR inh -28, ugtP null kill -2 and Mtb hypoxia rep growth -3.
`COc1ccc(C(=O)Cn2c(=N)n(C)c3ccccc32)cc1` gave RN4220 kill 1.6, Mtb hypoxia rep -2, BJeLR lethal -5, Autofluor counter 3233, PrP 5UTR inh -57, ugtP null kill 5 and Mtb hypoxia rep growth 3.
`Clc1ccc(SCCOCCN2CCc3ccccc3C2)cc1` gave RN4220 kill 5.5, Mtb hypoxia rep 5, BJeLR lethal -8, Autofluor counter 2831, PrP 5UTR inh 1, ugtP null kill 1 and Mtb hypoxia rep growth -3.
CCOC(=O)CCCCNCc1ccccc1 was read as RN4220 kill 2.2, Mtb hypoxia rep 6, BJeLR lethal -3, Autofluor counter 4433, PrP 5UTR inh -12, ugtP null kill -3 and Mtb hypoxia rep growth 9.
`CCOCCCn1cc(C(=O)c2cc(Br)ccc2O)cc(C#N)c1=O` gave RN4220 kill 9.6, Mtb hypoxia rep 4, BJeLR lethal 5, Autofluor counter 2723, PrP 5UTR inh -15, ugtP null kill 15 and Mtb hypoxia rep growth -7.
`CCOc1cc(C)nc(N2CCCC(C(=O)NCc3ccccc3F)C2)n1` (stereo unspecified) gave RN4220 kill 5.3, Mtb hypoxia rep 15, BJeLR lethal 5, Autofluor counter 8109, PrP 5UTR inh -11, ugtP null kill 4 and Mtb hypoxia rep growth 3.
`CC1(C(=O)Nc2ccccc2)Cc2ccccc2C(=O)O1` (stereo unspecified) gave RN4220 kill 4.7, Mtb hypoxia rep 10, BJeLR lethal 10, Autofluor counter 4091, PrP 5UTR inh -7, ugtP null kill 15 and Mtb hypoxia rep growth 0.
For N#Cc1ccc(-c2cccnc2)nc1SCc1ccc(Cl)cc1Cl the results were RN4220 kill -3.2, Mtb hypoxia rep 8, BJeLR lethal 6, Autofluor counter 4565, PrP 5UTR inh -22, ugtP null kill -38 and Mtb hypoxia rep growth 10.
CC(C)(C)n1cnc2cc(NC(=O)c3ccco3)ccc21 was read as RN4220 kill 1.7, Mtb hypoxia rep 16, BJeLR lethal -10, Autofluor counter 4496, PrP 5UTR inh -41, ugtP null kill 11 and Mtb hypoxia rep growth 1.
Screening CCN(c1ccc(NC(=O)CN2C(=O)NC3(CCOc4ccccc43)C2=O)cc1)C(C)C (stereo unspecified) returned RN4220 kill 4.3, Mtb hypoxia rep 4, BJeLR lethal 7, Autofluor counter 4531, PrP 5UTR inh -26, ugtP null kill -1 and Mtb hypoxia rep growth 12.
Screening Cn1cccc1Cc1nnc(SCC(=O)NCc2ccc3c(c2)OCO3)n1CCc1ccccc1 returned RN4220 kill 8.8, Mtb hypoxia rep 4, BJeLR lethal -1, Autofluor counter 11001, ugtP null kill -3 and Mtb hypoxia rep growth 15.
Screening CC(C)(C)c1ncc(S(=O)(=O)c2ccc(C(F)(F)F)cn2)c(N)n1 returned RN4220 kill 2.4, Mtb hypoxia rep 17, BJeLR lethal -6, Autofluor counter 5382, PrP 5UTR inh -8, ugtP null kill 9 and Mtb hypoxia rep growth 1.
CN1CCN(c2sc(S(C)(=O)=O)nc2S(=O)(=O)c2ccc(Cl)cc2)CC1 was read as RN4220 kill 2.4, Mtb hypoxia rep 0, BJeLR lethal -3, Autofluor counter 4807, PrP 5UTR inh 3, ugtP null kill 4 and Mtb hypoxia rep growth 6.
For COc1ccc(CCN2C(=O)CSC2c2cccc([N+](=O)[O-])c2)cc1OC (stereo unspecified) the results were RN4220 kill 2.6, Mtb hypoxia rep -4, BJeLR lethal -3, Autofluor counter 3929, PrP 5UTR inh -16, ugtP null kill 4 and Mtb hypoxia rep growth 2.
For Nc1c(S(=O)(=O)c2ccccc2)csc1C(=O)O the results were RN4220 kill -1.1, Mtb hypoxia rep 0, Autofluor counter 4267, PrP 5UTR inh -3, ugtP null kill 2 and Mtb hypoxia rep growth 4.
Screening COc1ccc(NC(=O)Cn2nnc(C(=O)NCc3ccco3)c2N)c(OC)c1 returned RN4220 kill 5.0, Mtb hypoxia rep 4, BJeLR lethal 5, Autofluor counter 4104, PrP 5UTR inh -14, ugtP null kill -2 and Mtb hypoxia rep growth 8.
Screening COc1cccc(CNS(=O)(=O)/C=C/c2ccc(OC)c(OC)c2)c1 returned BJeLR lethal -8, Autofluor counter 4494 and PrP 5UTR inh -19.
For Cc1ccc(N2C(=O)c3cccc4c([N+](=O)[O-])ccc(c34)C2=O)c2cccnc12 the results were RN4220 kill 6.2, Mtb hypoxia rep 4, BJeLR lethal 52*, Autofluor counter 3438, PrP 5UTR inh 37, ugtP null kill 5 and Mtb hypoxia rep growth 7.
CC(=O)c1cccc(NC(=O)C2=CC(c3ccc4c(c3)OCO4)=NS(=O)(=O)N2C)c1 was read as RN4220 kill -2.2, Mtb hypoxia rep 1, BJeLR lethal -5, Autofluor counter 5968, PrP 5UTR inh -24, ugtP null kill 0 and Mtb hypoxia rep growth 0.
For CSc1ccc(/C=N/N2CCN(Cc3ccc(Cl)cc3)CC2)cc1 the results were BJeLR lethal 3, Autofluor counter 4332 and PrP 5UTR inh -11.
`S=C(Nc1ccc(Cl)cc1)N1CCOCC1` gave RN4220 kill -1.0, BJeLR lethal 3, Autofluor counter 4881, PrP 5UTR inh -35 and ugtP null kill 9.
For CCOC(=O)C1CCN(c2nc3ccccc3nc2C(C#N)C(=O)OCCOC)CC1 (stereo unspecified) the results were RN4220 kill 4.7, Mtb hypoxia rep 1, BJeLR lethal -9, Autofluor counter 3085, PrP 5UTR inh 9, ugtP null kill 0 and Mtb hypoxia rep growth 11.
`CC(Oc1cccc(Cl)c1)C(=O)NC1CC(C)(C)NC(C)(C)C1` (stereo unspecified) gave RN4220 kill 1.2, Mtb hypoxia rep 6, BJeLR lethal 8, Autofluor counter 6447, PrP 5UTR inh 0, ugtP null kill 8 and Mtb hypoxia rep growth 3.
`CCCc1nc2ccc(NC(=O)NCCC(=O)OCC)cc2c(=O)n1Cc1ccc(Cl)cc1` gave RN4220 kill 9.8, Mtb hypoxia rep -5, BJeLR lethal 3, Autofluor counter 3125, PrP 5UTR inh -8, ugtP null kill -1 and Mtb hypoxia rep growth -3.
Screening Cn1cc(S(=O)(=O)N2CCCC2)cc1C(=O)NCc1ccc(Cl)cc1 returned RN4220 kill 6.3, Mtb hypoxia rep 5, BJeLR lethal -6, Autofluor counter 4786, PrP 5UTR inh 29, ugtP null kill 4 and Mtb hypoxia rep growth 0.
`CC1CCCCC12NC(=O)N(CC(=O)OCc1cccc(F)c1)C2=O` (stereo unspecified) gave RN4220 kill 3.7, Mtb hypoxia rep 12, Autofluor counter 8442, PrP 5UTR inh -18, ugtP null kill 5 and Mtb hypoxia rep growth 4.
`COC(=O)c1ccc(COc2ccccc2/C=C/C(=O)c2ccc(OCC(=O)O)cc2)cc1` gave RN4220 kill 2.2, Mtb hypoxia rep -3, BJeLR lethal -9, Autofluor counter 5854, PrP 5UTR inh -1, ugtP null kill 1 and Mtb hypoxia rep growth 9.

Screening data (PubChem)
